Screening data: PubChem, several laboratories
Vif TR-FRET: inhibitors of Vif binding to APOBEC3G peptide, primary screen, biochemical, TR-FRET, GST-Vif 1-94, biotin-A3G peptide, dose response retest (AID 1117319); TR-FRET GST-Vif / biotin-A3G peptide binding; higher % means a stronger effect; test concentration not given here; strong numbers were not always called active; one-dose inhibition, %; IC50 in µM for titrated hits; 260,000 tested, 0.57% active;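 active = above the screen mean plus three standard deviations and confirmed in dose response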;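 note: Vif residues 1-94 fused to GST binding biotinylated APOBEC3G peptide 110-148; 0% = full assay without inhibitor and 100% = GST in place of GST-Vif; retest series ran down from 100 µM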
FGF22 binding: binders of recombinant human FGF22 by thermal shift; calls only at 9.99 µM; SYPRO orange fluorescence; percent of sucrose octasulfate shift, DMSO zero; 340,000 tested, 1.5% active; Q9HCT0;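 active = melting point raised past a set limit in the mean and every replicate; three in four hits are not shown here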
Target sequence (Q9HCT0 whole entry, looked up): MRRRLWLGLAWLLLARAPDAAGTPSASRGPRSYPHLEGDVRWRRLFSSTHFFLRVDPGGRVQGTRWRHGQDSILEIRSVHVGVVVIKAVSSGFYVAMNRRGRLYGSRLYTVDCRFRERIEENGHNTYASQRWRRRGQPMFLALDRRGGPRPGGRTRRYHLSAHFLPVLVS
AF4-AF9 inh: inhibitors of human MLL-AF4/AF9 interaction; P42568; AID 651704; inhibition, % at 10 µM; AlphaScreen, biotin-AF4 peptide binding to FLAG-AF9; 350,000 tested, 0.47% active;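 active = every replicate reaching a set inhibition limit, whatever the replicate mean, cut at about 25% in these data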;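 note: 0% = plate neutral control median and 100% = total signal loss; the record names both 10 and 1 µM as test concentration; the first replicate is given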
Target sequence (P42568 whole entry, looked up): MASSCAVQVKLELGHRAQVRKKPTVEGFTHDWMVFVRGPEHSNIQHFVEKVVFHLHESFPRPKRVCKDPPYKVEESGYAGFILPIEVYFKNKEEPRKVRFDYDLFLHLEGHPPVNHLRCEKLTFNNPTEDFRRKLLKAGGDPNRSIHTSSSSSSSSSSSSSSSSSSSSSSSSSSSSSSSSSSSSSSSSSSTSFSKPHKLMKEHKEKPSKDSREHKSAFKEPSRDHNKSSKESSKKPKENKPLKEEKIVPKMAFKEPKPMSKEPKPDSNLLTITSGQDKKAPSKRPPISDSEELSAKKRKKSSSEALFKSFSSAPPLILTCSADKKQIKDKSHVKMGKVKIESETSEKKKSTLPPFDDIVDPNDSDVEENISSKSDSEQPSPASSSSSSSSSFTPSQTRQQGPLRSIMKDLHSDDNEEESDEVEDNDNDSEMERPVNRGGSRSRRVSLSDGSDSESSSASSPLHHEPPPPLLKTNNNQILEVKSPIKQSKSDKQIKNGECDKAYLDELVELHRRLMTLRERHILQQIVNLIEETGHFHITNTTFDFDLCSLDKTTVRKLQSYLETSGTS
E coli growth: inhibitors of Escherichia coli growth; AID 1053175; OD600, 23 h; stronger effect = lower value; 330,000 tested, 0.21% active; OD600 absorbance (no concentration beside the values);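 active = OD600 absorbance below the run mean of sample wells minus 3.6 SD, in any replicate, cut at about 0.56 in these data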;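 note: stock transfer was 300 nL into about 60 µL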
HNF4A DNA FP: change in binding of human HNF4 alpha to DNA; P41235; HNF4a-FITC DNA binding, fluorescence polarization, 1 h; activity change, % at 10 µM; 360,000 tested, 0.3% active; AID 1224865; in the data active = activity change above about 30%, passing the limit was not always enough;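 note: controls were the assay level and a saturating level of protein; the project sought stronger binding though the title names inhibitors; some compounds called inactive have numbers as strong as hits; positive values seem to mean higher polarization but the record does not say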
rRNA inh HTS: selective bacterial rRNA inhibition in E. coli | 350,000 tested, 1.6% active | GFP signal change (wild-type ribosome), % (no concentration beside the values) | E. coli WT GFP vs humanized-ribosome RFP mutants, fluorescence, 24 h; stronger effect = lower value; DMSO median 0, no signal -100 | AID 720706;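 active = significant combined selectivity score with lowered wild-type GFP, culture density cut under 30%, mutant RFP and density less affected; inactive = any of these conditions unmet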; note: one replicate is shown; some compounds called inactive have numbers as strong as hits
ALR inh: human ALR oxidase inhibition via reduced H2O2; P55789; purified ALR, DTT oxidation, H2O2 HRP-luminol luminescence; inhibition, % (test concentration not listed); 290,000 tested, 3.8% active;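 active = mean and each replicate at 75% or more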;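 note: stock transfer was 7.5 nL into about 7.5 µL; 0% = neutral wells and 100% = wells with inactivated enzyme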
Target sequence (P55789 whole entry, looked up): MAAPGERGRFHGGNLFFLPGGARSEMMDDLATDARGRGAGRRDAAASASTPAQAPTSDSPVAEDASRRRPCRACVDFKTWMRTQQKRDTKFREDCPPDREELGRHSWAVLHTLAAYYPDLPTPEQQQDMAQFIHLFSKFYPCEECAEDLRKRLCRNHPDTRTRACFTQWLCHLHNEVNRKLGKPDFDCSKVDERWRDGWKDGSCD
rRNA inh HTS OD600: further read-out of rRNA inh HTS, marked with its call; OD600 change, %; measured here: OD600 growth;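 optical density of the mix in the first replicate; 0 = DMSO median and -100 = no signal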
rRNA inh HTS RFP: also measured in rRNA inh HTS; calls as there; RFP signal change, %; measured here: RFP humanized mutant strains;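 first replicate; 0 = DMSO median and -100 = no signal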
Starred values were filed as active, the others as inactive; i = inactive; . = not tested or not shown. Not all compounds are listed (hit frequency here may not be typical).

FGF22 binding	HNF4A DNA FP	rRNA inh HTS	rRNA inh HTS RFP	ALR inh	rRNA inh HTS OD600	Vif TR-FRET	E coli growth	AF4-AF9 inh	structure
.	-0.9	.	.	-1	.	-3%	0.71	.	Cc1nc(-c2cccc(S(=O)(=O)N3CC(C)CC(C)C3)c2)cs1 (centres undefined)
.	1.8	.	.	30	.	27%	0.7	.	CCSc1nc(O)c(C2OC(=O)c3c2ccc(OC)c3OC)c(=O)n1-c1ccccc1 (centres undefined)
i	.	0	-0.4	.	-2	.	.	0.3	CN1C(=O)c2cc(NC(=O)c3ccccc3F)ccc2OC[C@@H]2O[C@@H](CC(=O)NCc3ccc4c(c3)OCO4)CC[C@@H]21
i	0.5	2	-1.0	0	14	-4%	0.68	-3.2	Cc1cc(C)c(C#N)c(SCCS(=O)(=O)Cc2ccccc2)n1
i	.	0	-0.1	.	0	.	.	-0.5	COc1ccc(S(=O)(=O)Nc2ccc3c(c2)CC(=O)N([C@H](C)CO)C[C@H](C)[C@H](CN(C)C(=O)Nc2c(C)noc2C)O3)cc1
i	.	2	0.9	.	2	.	.	-3.1	C[C@@H]1CCCCO[C@H](CN(C)Cc2ccc(C(=O)O)cc2)[C@H](C)CN([C@H](C)CO)C(=O)c2cc(NS(C)(=O)=O)ccc2O1
i	1.9	1	-6.1	.	-2	.	0.64	0.5	CCC(=NC)C1=C(O)CC(c2ccccc2)CC1=O (centres undefined)
.	2.0	.	.	5	.	-2%	0.69	.	COc1ccc(N=C2SC(C(=O)O)CC(=O)N2Cc2ccc(OC)c(OC)c2)cc1 (centres undefined)
i	-2.3	-43	-14	.	-45	3%	0.59	-8.6	O=C(OCC(=O)c1c[nH]c2ccccc12)c1cccc(O)c1
.	-0.6	.	.	2	.	-3%	0.69	.	CC1CCC2(CC1)NC(=O)N(CC(=O)NC(=O)NC1CCCC1)C2=O (centres undefined)
i	0.6	5	-1.1	-2	5	.	0.71	-9.7	COc1ccc(C(=O)NCCNC(=O)c2cnccn2)cc1
i	0.8	.	.	-10	.	.	0.61	15	NC(N)=NCCCC(NC(=O)c1ccccc1)C(=O)Nc1ccc2ccccc2c1 (centres undefined)

Some of the entries above, reformatted:
> COc1ccc(N=C2SC(C(=O)O)CC(=O)N2Cc2ccc(OC)c(OC)c2)cc1 (centres undefined)
  FGF22 binding: .; HNF4A DNA FP: 2.0; rRNA inh HTS: .; rRNA inh HTS RFP: .; ALR inh: 5; rRNA inh HTS OD600: .; Vif TR-FRET: -2%; E coli growth: 0.69; AF4-AF9 inh: .

> COc1ccc(C(=O)NCCNC(=O)c2cnccn2)cc1
  FGF22 binding: i; HNF4A DNA FP: 0.6; rRNA inh HTS: 5; rRNA inh HTS RFP: -1.1; ALR inh: -2; rRNA inh HTS OD600: 5; Vif TR-FRET: .; E coli growth: 0.71; AF4-AF9 inh: -9.7

> CCC(=NC)C1=C(O)CC(c2ccccc2)CC1=O (centres undefined)
  FGF22 binding: i; HNF4A DNA FP: 1.9; rRNA inh HTS: 1; rRNA inh HTS RFP: -6.1; ALR inh: .; rRNA inh HTS OD600: -2; Vif TR-FRET: .; E coli growth: 0.64; AF4-AF9 inh: 0.5

> O=C(OCC(=O)c1c[nH]c2ccccc12)c1cccc(O)c1
  FGF22 binding: i; HNF4A DNA FP: -2.3; rRNA inh HTS: -43; rRNA inh HTS RFP: -14; ALR inh: .; rRNA inh HTS OD600: -45; Vif TR-FRET: 3%; E coli growth: 0.59; AF4-AF9 inh: -8.6

(next part)
FGF22 binding	HNF4A DNA FP	rRNA inh HTS	rRNA inh HTS RFP	ALR inh	rRNA inh HTS OD600	Vif TR-FRET	E coli growth	AF4-AF9 inh	structure
i	.	0	-1.3	.	-8	.	.	-5.2	Cc1noc(C)c1NC(=O)N(C)C[C@H]1OCCCC[C@@H](C)Oc2ccc(NC(=O)NC(C)C)cc2C(=O)N([C@@H](C)CO)C[C@H]1C
i	0.1	.	.	.	.	-3%	0.69	-2.1	CC(=O)Oc1ccc2ccc3ccc(C(C)=O)cc3c2c1
i	0.2	-1	1.4	-1	23	-1%	0.7	2.9	COc1ccc2oc(=O)cc(-c3cc4ccccc4o3)c2c1
i	-2.7	12	0.6	-2	6	-9%	0.69	-2.5	CCc1ccc(N2CC(C(=O)OC)CC2=O)cc1 (centres undefined)
.	1.4	.	.	-5	.	68%	0.71	.	COCCn1c(N)c(NCc2ccccc2)c(=O)n(CC(=O)Nc2cc(C)ccc2C)c1=O
.	-3.2	.	.	-8	.	1%	0.69	.	O=c1[nH]nc(CSCc2ccccc2Cl)[nH]1
i	.	-1	-1.3	.	-3	.	.	-1.4	O=S(=O)(N[C@@H]1CC[C@@H](CCn2cc(C3(O)CCCC3)nn2)O[C@@H]1CO)c1ccccc1
i	-1.1	7	-1.8	.	-1	.	.	0.8	COc1ccc(-c2ccc(C(=O)NCc3ccccc3)c3occc23)c(C)c1
i	.	-5	-1.9	.	6	.	.	-0.9	C[C@H]1CN([C@@H](C)CO)C(=O)c2cc(/C=C/c3ccccc3)cnc2O[C@H]1CN(C)C(=O)c1ccncc1
.	3.8	.	.	1	.	-11%	0.73	.	CCOC(=O)c1c(NC(=O)C2CCN(S(=O)(=O)c3ccc(Cl)cc3)CC2)sc2c1CCCC2
i	.	-5	4.0	.	-12	.	.	-2.4	Cc1noc(C)c1NC(=O)Nc1ccc2c(c1)C(=O)N([C@H](C)CO)C[C@H](C)[C@@H](CN(C)Cc1ccc(Cl)c(Cl)c1)OCCCC[C@H](C)O2
i	1.1	0	1.2	-2	-1	2%	.	-0.7	Cc1cccc(OC(C)C(=O)N/N=C\c2ccncc2)c1 (centres undefined)
i	-1.0	-13	-1.8	.	-17	.	.	-1.5	CN(Cc1ccccn1)C(=O)c1cc(COc2ccc(F)cc2Cl)on1
i	.	0	-4.2	.	8	.	.	-2.7	CC(C)NC(=O)Nc1ccc2c(c1)C(=O)N([C@@H](C)CO)C[C@H](C)[C@@H](CN(C)C(=O)NC(C)C)O2
.	-0.9	5	-2.8	1	-1	0%	0.73	-1.2	O=c1cnnc(Nc2ccccc2)[nH]1
i	.	1	1.0	.	2	.	.	-5.0	COc1ccc(CN(C)C[C@H]2OCCCC[C@@H](C)Oc3ccc(NS(=O)(=O)c4cn(C)cn4)cc3C(=O)N([C@H](C)CO)C[C@H]2C)cc1
i	1.4	-39	-5.0	-3	-53	8%	0.64	6.1	COc1ccc(CCNC(=O)c2cccc3c2C(=O)N(C2CCCCC2)C3)cc1OC
i	6.4	17	1.0	10	10	.	0.62	5.5	COCCN(Cc1cn[nH]c1-c1ccc2cc(OC)ccc2c1)C(C)C
i	.	-2	2.4	.	1	.	.	-0.5	COc1ccc(C#Cc2ccc([C@@H]3[C@H](CO)N4C(=O)CN(C(=O)C5CCOCC5)C[C@@H]34)cc2)cc1
i	0.5	5	15	.	1	-8%	.	-0.4	COc1cc2c(c(OC)c1OC)-c1ccc(NCc3ccccc3)c(=O)cc1C(NC(C)=O)CC2 (centres undefined)
i	-0.5	-5	4.2	-2	-14	3%	0.69	-1.0	Cc1ccc(Nc2nnc(SC(C)C(=O)NCC3CCCO3)s2)cc1C (centres undefined)
.	0.1	-14	2.0	-1	-3	.	0.68	-3.7	CCC(=O)NC(=S)Nc1cccc(NC(=O)c2ccccc2)c1
i	1.4	14	0.4	-15	17	5%	0.66	-2.9	CC(=O)Nc1ccc(S(=O)(=O)NCC(=O)NCCc2ccc(S(N)(=O)=O)cc2)cc1
i	4.9	-1	-4.0	0	8	1%	0.7	1.2	Nc1cc(-c2ccc(Cl)cc2)nn1-c1ccccc1
i	.	-4	-5.2	.	4	.	.	0.2	C[C@@H]1CN([C@H](C)CO)C(=O)c2cc(NC(=O)Nc3ccc(C(F)(F)F)cc3)ccc2O[C@H]1CN(C)Cc1ccc(Oc2ccccc2)cc1
i	2.0	-4	-2.9	.	-2	0%	.	-3.2	COc1ccc(/C=N/OCC(=O)N(Cc2ccccc2)c2ccccc2C(=O)O)cc1
.	20	.	.	41	.	-2%	0.72	.	COc1ccc2c(C)cc(SCC(=O)N3CCOCC3)nc2c1
i	0.7	-4	-3.5	.	-3	1%	.	1.8	CCn1cc(/C=C(\NC(=O)c2ccccc2OC)C(=O)NCCN2CCOCC2)c2ccccc21
i	-1.9	6	1.6	0	11	0%	0.67	-5.3	O=C(COC(=O)CSc1ccccc1)Nc1ccc(F)cc1F
i	-0.7	18	2.2	4	7	.	0.7	6.1	O=C(NC(=S)Nc1ccc(S(=O)(=O)Nc2nccs2)cc1)c1cccc(F)c1
.	-1.1	.	.	0	.	16%	0.69	.	O=C(C1CCN(Cc2ccc(OCc3ccccc3)cc2)CC1)N1CCCC1
i	1.4	-49	-8.9	-6	-77	.	0.68	0.1	CC(=O)c1ccc(OCc2cc(C(=O)N3CC[C@@H]4CCCC[C@H]4C3)no2)cc1
i	0.1	-31*	-3.1*	-18	-13*	0%	0.68	-0.2	Cc1sc(C(=O)Nc2ccc3ccccc3c2)cc1CC(=O)O
.	3.6	.	.	-1	.	-5%	0.75	.	COc1ccc(-c2nn3c(-c4ccco4)nnc3s2)cc1OC
i	-0.9	15	3.0	-4	14	3%	0.74	1.3	Cn1c(=O)c2c(nc(SCC(=O)Nc3ccccc3)n2C)n(C)c1=O
.	-4.7	.	.	-10	.	8%	0.7	.	CC(=O)N1CCN(S(=O)(=O)c2ccc(S(=O)(=O)NCC(C)C)cc2)CC1
i	-0.4	.	.	-3	.	3%	0.62	-1.5	COc1cccc(NC(=O)CN(C)C(=O)CCNS(=O)(=O)c2ccc(C)cc2)c1
i	-0.1	-20*	0.1*	-19	-11*	3%	0.68	-4.6	CCCCCc1nnc(NC(=O)C2COc3ccccc3O2)s1 (centres undefined)
i	2.1	7	1.2	1	3	-7%	0.66	-10	CN(C(=O)COC(=O)/C=C/c1ccc(S(=O)(=O)N2CCc3ccccc32)cc1)C1CCS(=O)(=O)C1 (centres undefined)
i	.	1	-1.8	.	6	.	.	-2.6	C[C@@H]1CN([C@H](C)CO)C(=O)c2cc(NS(=O)(=O)c3ccccc3)ccc2O[C@H]1CN(C)C(=O)NC1CCCCC1
i	-0.9	4	0.6	2	11	.	0.65	-0.5	COc1ccc(C)cc1NC(=O)c1ccc2c(O)c(S(=O)(=O)c3ccccc3)c(=O)[nH]c2c1
i	1.9	2	-4.6	-7	4	-3%	0.68	3.1	COC(=O)CSc1nnc2cc(C)c3ccccc3n12
.	-1.3	-5	-0.3	4	1	.	.	2.4	O=C(CCCN1C(=O)/C(=C\c2ccccc2)SC1=S)Nc1cccc(C(=O)O)c1
i	-1.7	-52	-15	32	-77	13%	0.47*	0.1	Cc1ccc(C(=O)NNC(=S)NC(=O)c2ccco2)cc1
i	-7.2	.	.	5	.	4%	0.76	-4.2	O=C(CSc1ccccn1)Nc1nc2ccc(Br)cc2s1
i	.	2	0.7	.	0	.	.	-2.2	O=C(C[C@H]1C=C[C@@H](NC(=O)CC2CC2)[C@@H](CO)O1)NCC(F)(F)F
